HNF4A DNA FP: change in binding of human HNF4 alpha to DNA; activity change, % at 10 µM; HNF4a-FITC DNA binding, fluorescence polarization, 1 h; AID 1224865; P41235; actives 0.3% (n = 360,000); in the data active means activity change above about 30%, passing the limit was not always enough;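 further: controls were the assay level and a saturating level of protein; the project sought stronger binding though the title names inhibitors; some compounds called inactive have numbers as strong as hits; positive values seem to mean higher polarization but the record does not say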
Target sequence (P41235 whole entry, looked up): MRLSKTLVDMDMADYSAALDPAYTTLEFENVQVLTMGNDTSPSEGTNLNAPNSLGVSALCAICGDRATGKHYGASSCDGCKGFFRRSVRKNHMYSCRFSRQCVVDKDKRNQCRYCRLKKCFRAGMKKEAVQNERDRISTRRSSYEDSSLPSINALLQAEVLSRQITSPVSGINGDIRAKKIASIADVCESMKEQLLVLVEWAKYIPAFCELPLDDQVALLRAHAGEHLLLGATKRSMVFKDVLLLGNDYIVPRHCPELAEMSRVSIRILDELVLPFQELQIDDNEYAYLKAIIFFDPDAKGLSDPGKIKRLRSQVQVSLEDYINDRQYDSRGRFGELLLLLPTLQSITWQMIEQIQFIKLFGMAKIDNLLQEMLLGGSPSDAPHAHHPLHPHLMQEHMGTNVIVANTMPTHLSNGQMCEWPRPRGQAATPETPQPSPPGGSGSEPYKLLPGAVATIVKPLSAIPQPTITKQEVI
LANA-H2A inh: blocks KSHV LANA binding to histone H2A/H2B; cell-free LANA-H2A/H2B peptide, fluorescence polarization; inhibition, % (concentration not given with the values); actives 0.6% (n = 320,000); in the data active means inhibition mostly above about 10%, no sharp cut-off; inactive means mostly below about 6.7%;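 further: stock transfer was 7.5 nL into about 10 µL; 0% = median of vehicle wells and 100% = median of positive control wells; one replicate is shown; the record names a cut of 25% in any replicate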
B2AR ag: agonists of human beta-2 adrenergic receptor inducing internalization; response, % (concentration not given with the values); actives 0.43% (n = 340,000); P07550; Am2.2-beta2AR cells, FAP receptor internalization, flow cytometry; reference of the scale not given here;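 active means response above a set limit, near 3 SD of response in nonfluorescent compounds, cut at about 42% in these data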;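 further: stock transfer was 100 nL into about 11 µL; a reference agonist was the positive control; negative values mostly stem from fluorescent compounds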
ALR inh: blocks human ALR sulfhydryl oxidase activity. inhibition, % (no concentration beside the values). P55789. actives 3.8% (n = 290,000). AID 485317. purified ALR, DTT oxidation, H2O2 HRP-luminol luminescence;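 active means mean and each replicate at 75% or more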;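 further: stock transfer was 7.5 nL into about 7.5 µL; 0% = neutral wells and 100% = wells with inactivated enzyme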
Target sequence (P55789 whole entry, looked up): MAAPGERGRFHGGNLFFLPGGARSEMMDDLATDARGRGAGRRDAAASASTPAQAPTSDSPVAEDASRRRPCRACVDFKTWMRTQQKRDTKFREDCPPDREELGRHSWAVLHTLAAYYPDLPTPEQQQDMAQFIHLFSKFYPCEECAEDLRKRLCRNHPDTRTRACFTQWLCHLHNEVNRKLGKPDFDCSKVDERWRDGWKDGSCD
FGF22 binding: FGF22 (human) thermal shift binding | Q9HCT0 | recombinant FGF22 thermal shift, SYPRO orange fluorescence; percent of sucrose octasulfate shift, DMSO zero | calls only at 9.99 µM | actives 1.5% (n = 340,000) | AID 651658;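 active means melting point raised past a set limit in the mean and every replicate; three in four hits are not shown here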
Target sequence (Q9HCT0 whole entry, looked up): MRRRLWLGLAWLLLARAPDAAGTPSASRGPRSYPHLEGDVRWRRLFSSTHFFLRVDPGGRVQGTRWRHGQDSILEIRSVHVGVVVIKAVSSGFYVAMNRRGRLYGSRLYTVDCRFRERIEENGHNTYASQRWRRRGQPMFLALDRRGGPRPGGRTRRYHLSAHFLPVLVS
E coli growth: blocks Escherichia coli growth | OD600 absorbance (no concentration beside the values) | OD600, 23 h; hits give low values | actives 0.21% (n = 330,000);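 active means OD600 absorbance below the run mean of sample wells minus 3.6 SD, in any replicate, cut at about 0.56 in these data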;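 further: stock transfer was 300 nL into about 60 µL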
UCH37 inh: inhibitors of human deubiquitinating enzyme UCH37 | Q9Y5K5 | purified proteasome/UCH37, Ub-AMC cleavage fluorescence | inhibition, % (concentration not given with the values) | actives 0.33% (n = 330,000);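 active means mean of two replicates above 20%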;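 further: 0% = compound-free wells with enzyme and 100% = wells lacking proteasome; stock transfer was 100 nL into about 20 µL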
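system = Proteasome-associated human UCH37 deubiquitinase | amount = 0.15 nM proteasome as dispensed | medium = pH 7.4 Tris-HCl (50 mM) with ovalbumin, ATP-MgCl2, DTT | incubation = 30 min preincubation with enzyme, 25 min cleavage at room temperature | detection = AMC fluorescence 355/460 nm | read-out basis = percent inhibition | controls = no-proteasome and no-compound wells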
An asterisk follows results filed as active; i = inactive; nt = not tested or not shown. Only part of the results is shown, so the mix of outcomes need not match the whole.

SMILES | HNF4A DNA FP | LANA-H2A inh | B2AR ag | ALR inh | FGF22 binding | E coli growth | UCH37 inh
O=C1CCCCC1C(Nc1ccc(Br)cc1)c1ccccc1 (centres undefined) | 7.3 | -1.6 | 9 | 29 | nt | 0.71 | 6.5
COc1ccc(NC(=O)N2c3ccccc3CC2C)cc1OC (centres undefined) | 1.1 | -1.1 | 0 | -16 | nt | 0.74 | 5.2
CC(C)(C)NC(=O)CN1C(=O)/C(=C/c2ccccc2)SC1=S | -4.5 | 1.8 | 1 | -1 | i | 0.7 | 5.1
Cc1cccc(OCCn2c(CCCO)nc3ccccc32)c1 | -0.4 | -2.5 | -6 | -5 | nt | 0.72 | 1.6
CCCS(=O)(=O)c1nc(S(=O)(=O)c2ccc(Cl)cc2)c(N2CCC(O)CC2)s1 | 0.9 | 2.9 | -16 | -4 | i | 0.71 | 6.6
Cc1c(C(=O)N(Cc2ccc(Cl)cc2)C2CCS(=O)(=O)C2)oc2ccccc12 (centres undefined) | -3.5 | 5.3 | -15 | -5 | i | 0.66 | 1.9
Cc1nn(-c2ccccn2)c(N)c1N=O | 1.0 | 1.8 | -1 | -1 | i | 0.69 | 9.5
O=C(Nc1ccc2[nH]ccc2c1)c1cccs1 | -2.6 | -4.4 | -7 | -12 | i | 0.66 | 2.5
COc1ccc(NC(=S)Nc2cccc(Cl)c2)cc1OC | -5.0 | 1.2 | -4 | 15 | i | 0.67 | 1.1
Cn1c(SCC(=O)Nc2ccccc2Oc2ccccc2)nnc1C1CC1 | 3.2 | 0.9 | -7 | -9 | i | 0.73 | 1.6
COC(=O)c1cc(OC)c(OC)cc1NC(=O)CCC1CCCC1 | -3.0 | -0.6 | 2 | -2 | nt | 0.7 | -8.9
CCOC(=O)N1CCC(NC(=O)c2csc3c2CCCC3)CC1 | 6.3 | -3.0 | 1 | nt | i | 0.76 | 2.9
CCOc1ccc(C(=O)CCC(=O)NNC(=O)c2ccccc2O)cc1 | 1.5 | 4.5 | -8 | 0 | i | 0.59 | -4.8
COc1ccccc1OCC(=O)Nc1ccc(S(=O)(=O)N2CCOCC2)cc1 | -1.7 | -1.4 | 2 | -4 | i | 0.66 | 4.0
CCc1ccc(CCC(=O)Nc2ccc(C(=O)O)cc2)o1 | 1.5 | -0.6 | 9 | 0 | i | 0.67 | -0.1
O=c1[nH]c(-c2ccccn2)nc2ccccc12 | -0.9 | -4.5 | 13 | -5 | nt | 0.71 | 1.7
CCN(CC)C(=O)C1CCCc2c1[nH]c1ccc(Cl)cc21 (centres undefined) | -6.4 | -0.4 | 35 | -188 | i | 0.68 | 4.5
S=c1[nH]nc(-c2ccc3c(c2)OCO3)n1-c1ccccc1 | 3.4 | 3.1 | -7 | 5 | nt | 0.64 | 2.9
O=C(C1CCCO1)N1CCN(c2ncccn2)CC1 (centres undefined) | -4.1 | 3.0 | 3 | -5 | nt | 0.73 | -5.9
COCCn1c(SC(C)C(=O)Nc2ccc3c(c2)OCCO3)nc2ccccc2c1=O (centres undefined) | 0.2 | 2.0 | 0 | -5 | nt | 0.72 | 6.8
CCOc1ccc(NC(=O)CCCOc2cc(=O)n(C)c3ccccc23)cc1 | 3.6 | -0.2 | -10 | nt | nt | 0.73 | 3.3
COc1ccc(NC(=O)c2cccc(Oc3ccc([N+](=O)[O-])cc3Cl)c2)cc1 | 2.1 | -7.4 | 0 | -4 | i | 0.73 | -0.8
Cc1ccc(-n2c(=O)cc(N3CC(C)OC(C)C3)[nH]c2=O)cc1 (centres undefined) | 0.3 | 0.4 | -4 | nt | i | 0.68 | -1.1
c1ccc2c(-c3ccc(OCCN4CCCCC4)cc3)c(-c3ccsc3)sc2c1 | 8.0 | 1.5 | 13 | -3 | i | nt | nt
O=C(Nc1nc2ccsc2c(=O)s1)c1ccc(Cl)cc1 | 13 | 0.7 | 3 | -3 | i | 0.66 | -5.5
Cc1cc(C)c(C#N)c(SCC(=O)Nc2ccccc2C(N)=O)n1 | -2.1 | -1.9 | -20 | -21 | nt | 0.63 | -3.9
CC(C)=CC(=O)NCc1c(Cl)cccc1-n1cccc1 | 2.5 | -1.1 | -9 | -53 | nt | 0.71 | -0.6
O=C1NC(=NCc2ccccc2)S/C1=C\c1ccccc1 | -1.5 | 2.0 | -7 | -2 | nt | nt | nt
COc1ccccc1C(=O)OCC(=O)NC1CCCC1 | -1.7 | 10 | nt | -6 | i | 0.69 | 4.5
O=S(=O)(Nc1ncccn1)c1ccc(NC(=S)NCc2ccco2)cc1 | 3.5 | -4.4 | -7 | 10 | i | 0.67 | 2.6
Cc1ccccc1OCC(=O)N/N=C/c1ccncc1 | -2.3 | 0.8 | -4 | -2 | nt | nt | nt
CN(C(=S)NC(=O)Cc1ccccc1)c1ccccc1 | 1.8 | 9.7 | -2 | -3 | i | 0.64 | -0.5
CCOC(=O)[C@H]1[C@H]2COc3ccccc3[C@@H]2N2C(=O)c3ccccc3NC(=O)[C@@]12C | -0.9 | -6.2 | 1 | nt | i | nt | 2.1
O=C(COc1ccccc1C(=O)c1cnn(-c2ccccc2)c1)Nc1ccc2ccccc2c1 | 0.9 | 4.3 | 12 | -5 | i | 0.74 | -0.3
O=[N+]([O-])c1cccnc1Sc1ccc(F)cc1 | -0.8 | 4.2 | 3 | 5 | i | 0.69 | -0.6
Cc1cccc(NC(=S)NC2CC3CCC(C2)N3Cc2ccco2)c1C (centres undefined) | -1.9 | 3.1 | 3 | 4 | i | 0.68 | 1.3
O=C(NC1CCCCC1)C(c1cccnc1)N(C(=O)CCl)c1ccc(F)cc1 (centres undefined) | 2.2 | nt | 10 | -5 | i | 0.65 | 3.2
COc1ccccc1NC(=O)CSc1nc2ncccc2[nH]1 | 2.2 | 15 | -1 | -5 | i | 0.66 | 5.0
O=C(NNC(=S)NCc1ccco1)C(c1ccccc1)c1ccccc1 | -0.1 | -9.8 | 7 | 4 | i | 0.67 | 2.7
COc1ccc2nc(SCC(=O)Nc3c(C)cc(C)cc3C)[nH]c2c1 | 5.3 | 1.6 | 2 | -3 | nt | 0.76 | 6.4
CC(=O)Nc1sc(C)c(C)c1C(=O)OCC(=O)N(Cc1ccccc1)C(C)C | 1.5 | -3.6 | 6 | -7 | i | 0.69 | -2.3
CC(=O)Nc1cccc(NC(=O)c2ccccc2OCc2ccccc2)c1 | 0.7 | -1.2 | 6 | -3 | i | 0.69 | 0.1
Cc1onc(-c2c(Cl)cccc2Cl)c1C(=O)N/N=C(\N)COc1ccc(Cl)cc1 | 0.7 | -3.6 | 21 | -5 | nt | nt | nt
O=C(N/N=C/c1cccc(OCc2ccccc2)c1)c1ccc(Br)cc1 | 6.3 | 2.8 | 5 | -29 | i | nt | nt
COc1cccc(S(=O)(=O)Nc2ccc(C(=O)N3CCOCC3)cc2)c1 | 0.3 | 2.8 | -4 | -15 | nt | 0.72 | 1.3
CCCCCCn1c(C)nc2c(c1=O)c1nc3ccccc3nc1n2/N=C/c1ccco1 | -4.3 | 3.2 | -1 | 31 | nt | nt | nt
COc1cc(NC(=O)[C@@H]2CCCN(S(=O)(=O)c3cccc4cccnc34)C2)cc(OC)c1OC | -0.2 | 3.1 | 15 | -27 | i | nt | 4.8
CNC(=O)NC(=O)CSc1nc2sccc2c(=O)n1-c1ccccc1 | 8.8 | 2.6 | 11 | -1 | i | 0.63 | 1.8
CC1CCN(C(=O)COc2cccc3c2CCN(C)C3=O)CC1 | -4.3 | 1.7 | -8 | -10 | i | 0.71 | 2.3
N#Cc1ccccc1OCCOCCNC1CCCC1 | -0.5 | -2.3 | -3 | -5 | i | 0.68 | 1.6
Clc1ccc(Cl)c(-c2nn3c(Cn4cnc5ccccc54)nnc3s2)c1 | 5.3 | -0.7 | 0 | -3 | nt | 0.72 | 3.0
CC1CN(c2ccc(S(=O)(=O)N3CCOCC3)cn2)CC(C)O1 (centres undefined) | 0.5 | 1.8 | -1 | -7 | nt | 0.69 | 0.0
CCOc1ccccc1NC(=O)NCc1ccccc1 | -3.1 | -0.1 | -3 | -2 | i | 0.7 | 4.8
Cc1cc(C)nc(NC(=O)c2cccc([N+](=O)[O-])c2C)n1 | -1.6 | -4.0 | -14 | nt | nt | 0.7 | 0.5
Cc1cccc(NC(=O)C2CCN(c3nc(C)cc(C)n3)CC2)c1 | 7.3 | -2.5 | 6 | 1 | nt | 0.72 | -4.8
CCOc1ccccc1NC(=O)C1C2CCC3C(CCC21)C3(Cl)Cl (centres undefined) | 2.4 | 2.1 | 3 | -3 | nt | 0.72 | 1.6
COC(=O)[C@]1(Cc2ccccc2)N[C@H](CN(C)C(=O)C2CCCCC2)[C@@H]2C(=O)N(Cc3ccccc3)C(=O)[C@@H]21 | -2.5 | nt | -4 | nt | i | 0.68 | 3.1
COc1cccc(C(=O)NNC2=CC(=O)CC(C)(C)C2)c1 | 2.1 | 4.0 | 1 | 59 | nt | 0.65 | 1.4
CCOc1ccc(NC(=O)N2CCC(n3nnc4cc(C)ccc43)CC2)cc1 | -1.0 | -2.8 | -3 | nt | nt | 0.68 | 0.9
COc1ccccc1NC(=O)CN1C(=O)C2(OCCCO2)c2ccccc21 | 2.3 | -7.1 | -3 | 1 | i | 0.68 | -2.4

(more compounds)
SMILES | HNF4A DNA FP | LANA-H2A inh | B2AR ag | ALR inh | FGF22 binding | E coli growth | UCH37 inh
O=C(CCSc1nnc(-c2ccccc2)o1)N1CCOCC1 | 1.7 | 0.8 | -1 | 3 | i | 0.66 | 1.7
C[C@H](CO)N1C[C@H](C)[C@@H](CN(C)Cc2ccncc2)Oc2c(cccc2N(C)C)C1=O | -1.6 | 0.5 | -7 | -13 | i | nt | 2.9
COc1cccc(C(=O)NC2CC3CCCC(C2)N3CC(=O)Nc2ccccc2C(F)(F)F)c1 (centres undefined) | 0.6 | -2.8 | 2 | 1 | i | 0.68 | 4.9
Cc1cc(NC(=O)CS(=O)(=O)c2ccc(F)cc2)no1 | -0.9 | 3.3 | -1 | 0 | i | 0.67 | 3.8
CCOC(=O)N1CCN(C(=O)C2CCCN(S(C)(=O)=O)C2)CC1 (centres undefined) | 2.0 | 3.2 | -1 | -4 | i | 0.71 | 2.5

Entries from the list above containing an aryl thioether with sulfur outside any ring:
SMILES | HNF4A DNA FP | LANA-H2A inh | B2AR ag | ALR inh | FGF22 binding | E coli growth | UCH37 inh
Cn1c(SCC(=O)Nc2ccccc2Oc2ccccc2)nnc1C1CC1 | 3.2 | 0.9 | -7 | -9 | i | 0.73 | 1.6
COCCn1c(SC(C)C(=O)Nc2ccc3c(c2)OCCO3)nc2ccccc2c1=O (centres undefined) | 0.2 | 2.0 | 0 | -5 | nt | 0.72 | 6.8
Cc1cc(C)c(C#N)c(SCC(=O)Nc2ccccc2C(N)=O)n1 | -2.1 | -1.9 | -20 | -21 | nt | 0.63 | -3.9
O=[N+]([O-])c1cccnc1Sc1ccc(F)cc1 | -0.8 | 4.2 | 3 | 5 | i | 0.69 | -0.6
COc1ccccc1NC(=O)CSc1nc2ncccc2[nH]1 | 2.2 | 15 | -1 | -5 | i | 0.66 | 5.0
COc1ccc2nc(SCC(=O)Nc3c(C)cc(C)cc3C)[nH]c2c1 | 5.3 | 1.6 | 2 | -3 | nt | 0.76 | 6.4
CNC(=O)NC(=O)CSc1nc2sccc2c(=O)n1-c1ccccc1 | 8.8 | 2.6 | 11 | -1 | i | 0.63 | 1.8
O=C(CCSc1nnc(-c2ccccc2)o1)N1CCOCC1 | 1.7 | 0.8 | -1 | 3 | i | 0.66 | 1.7

Screening results as filed in PubChem.
